Screens: PubChem, several laboratories
HIV Env fusion: blocks HIV Env-driven cell-cell fusion; HeLa-JRFL Env/CEM21 cell fusion, luciferase; inhibition, % at 12.3 µM; hit rate 1.1% among 360,000;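 active = mean replicate inhibition score of at least 50 and every replicate individually at or above 50; inconclusive = only one of the two criteria met; inactive = mean below 50 and not all replicates reaching 50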;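 also: 0% = plate neutral controls and 100% = maraviroc near 300 nM; one replicate is shown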
MT1-MMP act inh: MT1-MMP (human) activation inhibition; HT1080 RFP-PRO-GFP cells, GFP/RFP ratio fluorescence, overnight; percent of plate control window, DMSO zero; hit rate 0.061% among 360,000; GFP/RFP ratio change, % at 20 µM;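 active = GFP/RFP ratio change of at least 30% with cell ATP level not reduced by more than half and red fluorescence within 50% of control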; also: strong numbers were not always called active
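Assay system: HT1080 RFP-PRO-GFP cells. Benchmarks: DMSO vehicle wells and RFP-L50D-GFP reporter cell wells. Times: overnight cell settling, then overnight compound exposure, 37 °C, 5% CO2. Compound: 20 µM single dose, 1% DMSO. Read-out basis: GFP/RFP fluorescence ratio.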
MT1-MMP act inh RFP: second read-out of MT1-MMP act inh, no call of its own (marks repeat the call); RFP signal change, %; measured here: RFP expression control read;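 0 = vehicle wells; hits needed this value within 50% of zero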
The depositor's hits bear a star. Some of the compounds tested; the hit share may differ from the screen's.

How did COC(=O)[C@]12CCCCC=C1N(CCC1=CCCCC1)C(=O)[C@H](CC(=O)NCc1cccs1)C2 do in these assays?
HIV Env fusion: 20; MT1-MMP act inh: 4; MT1-MMP act inh RFP: -5

How did COc1ccc(C=NNC(=S)NC23CC4CC(CC(C4)C2)C3)cc1OC do in these assays?
HIV Env fusion: 0; MT1-MMP act inh: 9; MT1-MMP act inh RFP: -8

Results for COCCN1C(=O)COc2ccccc2C1C(=O)NC(C)(C)C (stereo not given) ?
HIV Env fusion: -15; MT1-MMP act inh: 5; MT1-MMP act inh RFP: 2

What do the screens show for `CCCCCCCCN1C(=O)[C@H](CC(=O)N2CCOCC2)C[C@@]2(C(=O)OC)CC(C)(C)CC=C12`?
HIV Env fusion: 18; MT1-MMP act inh: -8; MT1-MMP act inh RFP: -12

How did Nc1[nH]c(C(=O)c2ccccc2)c(-c2cccc3ccccc23)c1C(=O)NCc1ccccc1 do in these assays?
HIV Env fusion: -13; MT1-MMP act inh: 0; MT1-MMP act inh RFP: 2

How did O=C(CCN1CCCCC1)N1CCc2c([nH]c3ccccc23)C1c1cccnc1 (stereo not given) do in these assays?
HIV Env fusion: 14; MT1-MMP act inh: 2; MT1-MMP act inh RFP: 4

What do the screens show for `COC1=CC(=O)OC(c2cccc([N+](=O)[O-])c2)C1` (stereo not given)?
HIV Env fusion: -25; MT1-MMP act inh: 4; MT1-MMP act inh RFP: 2

Results for O=C1c2ccccc2CCC12OC2c1ccc([N+](=O)[O-])cc1 (stereo not given) ?
HIV Env fusion: -7; MT1-MMP act inh: 3; MT1-MMP act inh RFP: 1

Results for COc1cc2cc(C(=O)NCCc3c[nH]c4ccccc34)c(N)nc2cc1OC ?
HIV Env fusion: 25; MT1-MMP act inh: -14; MT1-MMP act inh RFP: -10

How did O=C(CC1c2cc(F)ccc2C=C(c2ccsc2)N1c1ccc(C#CCCO)cc1)c1ccco1 (stereo not given) do in these assays?
HIV Env fusion: 9; MT1-MMP act inh: -10; MT1-MMP act inh RFP: -14

What do the screens show for `CC(C)NC(=O)C1(C)CN(S(C)(=O)=O)CC(=O)N1C1CCN(Cc2ccccc2)CC1` (stereo not given)?
HIV Env fusion: 7; MT1-MMP act inh: -2; MT1-MMP act inh RFP: 2

What do the screens show for `CCCCn1nnnc1C(c1ccccc1)N1CCN(c2ccc(C(F)(F)F)cn2)CC1` (stereo not given)?
HIV Env fusion: 33; MT1-MMP act inh: -2; MT1-MMP act inh RFP: -14

How did COc1cccc(C(CCc2cc(OC)c(OC)c(OC)c2)NC(C)=O)c1 (stereo not given) do in these assays?
HIV Env fusion: 8; MT1-MMP act inh: -2; MT1-MMP act inh RFP: 3

What do the screens show for `CCOC(=O)[C@]12CCC=C1N(Cc1ccc(Cl)cc1Cl)C(=O)[C@H](CC(=O)NCc1ccc(C)o1)C2`?
HIV Env fusion: 4; MT1-MMP act inh: -3; MT1-MMP act inh RFP: -5

How did CC(=O)Nc1ccc(OCCCN2CCC(C(O)(c3ccccc3)c3ccccc3)CC2)cc1 do in these assays?
HIV Env fusion: -4; MT1-MMP act inh: 6; MT1-MMP act inh RFP: 2

How did O=c1c2ccccc2ncn1CCc1ccncc1 do in these assays?
HIV Env fusion: 1; MT1-MMP act inh: 2; MT1-MMP act inh RFP: 6

What do the screens show for `CCOC(=O)[C@]12CCCC=C1N(Cc1ccc(Cl)cc1Cl)C(=O)[C@H](CC(=O)N1CCCC1)C2`?
HIV Env fusion: -38; MT1-MMP act inh: -8; MT1-MMP act inh RFP: -11

How did CC(C)[C@@H]1Cc2[nH][nH]c(=O)c2[C@H](C(C)C)O1 do in these assays?
HIV Env fusion: 11; MT1-MMP act inh: 4; MT1-MMP act inh RFP: 5

What do the screens show for `CC(C)(O)C#Cc1ccc(N2C(c3ccsc3)=Cc3ccc(F)cc3C2c2c[nH]c3ccc(C#N)cc23)cc1` (stereo not given)?
HIV Env fusion: -9; MT1-MMP act inh: -23; MT1-MMP act inh RFP: -18

Results for COC(=O)[C@]12CCCCC=C1N(Cc1ccccc1)C(=O)[C@H](CC(=O)NCc1cccs1)C2 ?
HIV Env fusion: -16; MT1-MMP act inh: 3; MT1-MMP act inh RFP: 0

What do the screens show for `CC1(C)OC(=O)C2=C(C[C@@H](CCOCc3ccccc3)O[C@@H]2c2ccc(F)cc2)O1`?
HIV Env fusion: -8; MT1-MMP act inh: 1; MT1-MMP act inh RFP: -8

How did CC(=NO)c1ccc2c(c1)C(=NO)c1ccccc1-2 do in these assays?
HIV Env fusion: -18; MT1-MMP act inh: -1; MT1-MMP act inh RFP: 2

What do the screens show for `Cc1c(C(=O)OCC(O)=C(C#N)c2nc3ccccc3[nH]2)oc2ccc(Br)cc12`?
HIV Env fusion: -1; MT1-MMP act inh: -10; MT1-MMP act inh RFP: -1

How did NC(=S)NN=Cc1c[nH]c2nccnc12 do in these assays?
HIV Env fusion: 21; MT1-MMP act inh: 6; MT1-MMP act inh RFP: -4

Reprinted at random: three records from the list, in no set order.
What do the screens show for `CC1(C)OC(=O)C2=C(C[C@@H](CCOCc3ccccc3)O[C@@H]2c2ccc(F)cc2)O1`?
HIV Env fusion: -8; MT1-MMP act inh: 1; MT1-MMP act inh RFP: -8

How did COc1cccc(C(CCc2cc(OC)c(OC)c(OC)c2)NC(C)=O)c1 (stereo not given) do in these assays?
HIV Env fusion: 8; MT1-MMP act inh: -2; MT1-MMP act inh RFP: 3

How did CC(=NO)c1ccc2c(c1)C(=NO)c1ccccc1-2 do in these assays?
HIV Env fusion: -18; MT1-MMP act inh: -1; MT1-MMP act inh RFP: 2

Compounds from the list above that contain a cyano group (two):
What do the screens show for `CC(C)(O)C#Cc1ccc(N2C(c3ccsc3)=Cc3ccc(F)cc3C2c2c[nH]c3ccc(C#N)cc23)cc1` (stereo not given)?
HIV Env fusion: -9; MT1-MMP act inh: -23; MT1-MMP act inh RFP: -18

What do the screens show for `Cc1c(C(=O)OCC(O)=C(C#N)c2nc3ccccc3[nH]2)oc2ccc(Br)cc12`?
HIV Env fusion: -1; MT1-MMP act inh: -10; MT1-MMP act inh RFP: -1

Following part
Results for O=C(c1ccc2c(c1)OCO2)c1ccc[nH]1 ?
HIV Env fusion: -13; MT1-MMP act inh: 6; MT1-MMP act inh RFP: 7

Results for COc1ccc(S(=O)(=O)NC(=O)C2(C)CCN2C(=O)Cc2ccc(-c3ccccc3)cc2)cc1 (stereo not given) ?
HIV Env fusion: 2; MT1-MMP act inh: 5; MT1-MMP act inh RFP: 4

How did O=C(Nc1ccc(F)cc1)C(CCc1ccccc1)N1CCN(Cc2c(F)cccc2Cl)CC1 (stereo not given) do in these assays?
HIV Env fusion: -1; MT1-MMP act inh: -9; MT1-MMP act inh RFP: -9

Results for O=C(C[C@@H]1CC[C@@H]2[C@H](COC[C@H](O)CN2S(=O)(=O)c2ccccc2)O1)Nc1ccccc1 ?
HIV Env fusion: -8; MT1-MMP act inh: -1; MT1-MMP act inh RFP: 4

How did COc1ccc([C@H]2CC(=O)C[C@@H](CCn3cc(-c4ccncc4)nn3)O2)cc1 do in these assays?
HIV Env fusion: 7; MT1-MMP act inh: 3; MT1-MMP act inh RFP: 1

What do the screens show for `CCOC(=O)c1csc(CCNC(=O)c2ccccc2)n1`?
HIV Env fusion: 7; MT1-MMP act inh: 1; MT1-MMP act inh RFP: 2

How did CCCCN(C=O)c1c(CC)nc2c(OCCOc3ccccc3)cccn12 do in these assays?
HIV Env fusion: -3; MT1-MMP act inh: -2; MT1-MMP act inh RFP: -9

Results for COc1ccc(C(=O)c2[nH]c(N)c(C(=O)NCCc3c[nH]c4ccccc34)c2-c2ccc(C(F)(F)F)cc2)cc1 ?
HIV Env fusion: -28; MT1-MMP act inh: 8; MT1-MMP act inh RFP: 0

What do the screens show for `COC1OC2COC(c3ccccc3)OC2C(OC(C)=O)C1OC(C)=O` (stereo not given)?
HIV Env fusion: 0; MT1-MMP act inh: 0; MT1-MMP act inh RFP: 1

How did CCOC(=O)c1c2c(n(Cc3ccccc3)c1C)C(=O)C(=O)c1ccccc1-2 do in these assays?
HIV Env fusion: 78*; MT1-MMP act inh: -15; MT1-MMP act inh RFP: -29

How did CSc1nc(N)n2nc(C)cc2n1 do in these assays?
HIV Env fusion: -3; MT1-MMP act inh: 0; MT1-MMP act inh RFP: 7

What do the screens show for `COC(=O)[C@]12CCCCC=C1N(Cc1ccc(Cl)cc1Cl)C(=O)[C@H](CC(=O)N1CCN(C(=O)c3ccco3)CC1)C2`?
HIV Env fusion: -7; MT1-MMP act inh: -1; MT1-MMP act inh RFP: -6

Results for O=C(C(=O)N1CCC(c2ccccc2)CC1)c1cccc([N+](=O)[O-])c1 ?
HIV Env fusion: -13; MT1-MMP act inh: 0; MT1-MMP act inh RFP: -3

Results for COc1cccc(-c2oc3c(c2C#CC2(N)CCCCC2)C(O)CCC3)c1 (stereo not given) ?
HIV Env fusion: 51; MT1-MMP act inh: -5; MT1-MMP act inh RFP: -1

What do the screens show for `O=C(NCCOc1ccccc1)C1C(=O)Nc2ccccc2C(=O)N1C1CCCCC1` (stereo not given)?
HIV Env fusion: inconclusive; MT1-MMP act inh: -3; MT1-MMP act inh RFP: 0

How did Cc1cccc(S(=O)(=O)NC(=O)C2(C)CCN2C(=O)CCc2ccccc2)c1 (stereo not given) do in these assays?
HIV Env fusion: 4; MT1-MMP act inh: 0; MT1-MMP act inh RFP: 2

How did O=C1NC[C@@H](CCCCN2C[C@H](Cc3ccc(O)cc3)N(CCC3CCCCC3)C(=O)C2=O)N(Cc2ccccc2)C1=O do in these assays?
HIV Env fusion: 15; MT1-MMP act inh: -1; MT1-MMP act inh RFP: 3

What do the screens show for `O=C(Nc1ccc(Cl)cc1)c1nc[nH]c1C(=O)Nc1ccccc1F`?
HIV Env fusion: 10; MT1-MMP act inh: 5; MT1-MMP act inh RFP: 5

How did CCOC(=O)Nc1cc2c(c(N)n1)N=C(c1ccccc1)CN2 do in these assays?
HIV Env fusion: -8; MT1-MMP act inh: -36; MT1-MMP act inh RFP: 5

Results for Cc1cc(Br)cn2c(Cc3cccc(F)c3)c(-c3ccc(F)cc3)nc12 ?
HIV Env fusion: 21; MT1-MMP act inh: -4; MT1-MMP act inh RFP: -2

Results for CN1C(C)(C)CC(O)(C(=O)O)CC1(C)C ?
HIV Env fusion: 4; MT1-MMP act inh: 0; MT1-MMP act inh RFP: 5

Results for Cc1ccc(C(=O)CCC(=O)OCC(=O)Nc2nnc(-c3ccccc3)o2)cc1 ?
HIV Env fusion: -10; MT1-MMP act inh: 6; MT1-MMP act inh RFP: 3

What do the screens show for `Cc1cc(C)n2c(NCc3ccccc3)c(-c3cc4ccccc4o3)nc2n1`?
HIV Env fusion: -9; MT1-MMP act inh: -8; MT1-MMP act inh RFP: 8

What do the screens show for `Cc1cccc(-c2cnc(C(O)c3ccc(Cl)cc3C)[nH]2)c1` (stereo not given)?
HIV Env fusion: -24; MT1-MMP act inh: 2; MT1-MMP act inh RFP: -2

What do the screens show for `CCCCCn1nnnc1-c1nc2cc(C)c(C)cc2[nH]c1=O`?
HIV Env fusion: 17; MT1-MMP act inh: 6; MT1-MMP act inh RFP: -3

How did Cc1ccc(S(=O)(=O)Nc2ccccc2C(C(=O)OC(C)(C)C)C(=O)OC(C)(C)C)cc1 do in these assays?
HIV Env fusion: 57*; MT1-MMP act inh: -1; MT1-MMP act inh RFP: -9

What do the screens show for `O=C1c2ccccc2C(c2nnnn2Cc2ccccc2)N1CCCn1ccnc1` (stereo not given)?
HIV Env fusion: inconclusive; MT1-MMP act inh: 2; MT1-MMP act inh RFP: 3

How did CCCCNC(=O)C[C@@H]1C[C@@]2(C(=O)OC)CC(C)(C)CC=C2N(Cc2cccc3ccccc23)C1=O do in these assays?
HIV Env fusion: 4; MT1-MMP act inh: -13; MT1-MMP act inh RFP: -18

How did O=C(NCc1ccccc1)C(c1ccc(C(F)(F)F)cc1)n1c(=O)c(-c2ccccc2)nc2ccccc21 (stereo not given) do in these assays?
HIV Env fusion: 5; MT1-MMP act inh: -5; MT1-MMP act inh RFP: -19

How did CCc1c(-c2ccccc2)ncn1Cc1cccc(-c2ccccc2)c1 do in these assays?
HIV Env fusion: 6; MT1-MMP act inh: -6; MT1-MMP act inh RFP: -28

What do the screens show for `COc1cc2c(cc1OC)C(c1c(Cl)cccc1Cl)=NCC2`?
HIV Env fusion: 60*; MT1-MMP act inh: 2; MT1-MMP act inh RFP: -24

What do the screens show for `COc1cc(C(=O)Oc2ccccc2OC(=O)c2cc(OC)c(OC)c(OC)c2)cc(OC)c1OC`?
HIV Env fusion: -11; MT1-MMP act inh: 4; MT1-MMP act inh RFP: -3

How did CC1(C(=O)NS(=O)(=O)C2CC2)CCCN(C(=O)c2cccc(C(F)(F)F)c2)C1 (stereo not given) do in these assays?
HIV Env fusion: -24; MT1-MMP act inh: 1; MT1-MMP act inh RFP: 5
